CSC inhib – cancer stem cell viability inhibitors, primary screen, luminescence | cancer stem cell-like cells viability | inhibition, % at 7.5 µM | hit rate 1.1% among 300,000;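 active = mean at 75% or more and at least half the replicates too; tested in HMLE shEcad cells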;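 also: 0% = median of negative and 100% = median of positive control wells; the first replicate is given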
PABP polyA inh – PABP poly(A) RNA binding inhibitors, primary screen, biochemical, fluorescence polarization, uHTS. Polyadenylate-binding protein 1 (Homo sapiens), P11940. inhibition, % at 35 µM. hit rate 1% among 290,000;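 active = 50% or more with normal probe brightness, or confirmed in later tests; about a fifth of its hits are not listed in these tables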;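 also: calls also rest on retests at 20 µM and on dose response follow-up; controls were probe without protein and protein plus probe with vehicle; some compounds called inactive have numbers as strong as hits; many hits fall short of the cut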
Target sequence (P11940 whole entry, looked up): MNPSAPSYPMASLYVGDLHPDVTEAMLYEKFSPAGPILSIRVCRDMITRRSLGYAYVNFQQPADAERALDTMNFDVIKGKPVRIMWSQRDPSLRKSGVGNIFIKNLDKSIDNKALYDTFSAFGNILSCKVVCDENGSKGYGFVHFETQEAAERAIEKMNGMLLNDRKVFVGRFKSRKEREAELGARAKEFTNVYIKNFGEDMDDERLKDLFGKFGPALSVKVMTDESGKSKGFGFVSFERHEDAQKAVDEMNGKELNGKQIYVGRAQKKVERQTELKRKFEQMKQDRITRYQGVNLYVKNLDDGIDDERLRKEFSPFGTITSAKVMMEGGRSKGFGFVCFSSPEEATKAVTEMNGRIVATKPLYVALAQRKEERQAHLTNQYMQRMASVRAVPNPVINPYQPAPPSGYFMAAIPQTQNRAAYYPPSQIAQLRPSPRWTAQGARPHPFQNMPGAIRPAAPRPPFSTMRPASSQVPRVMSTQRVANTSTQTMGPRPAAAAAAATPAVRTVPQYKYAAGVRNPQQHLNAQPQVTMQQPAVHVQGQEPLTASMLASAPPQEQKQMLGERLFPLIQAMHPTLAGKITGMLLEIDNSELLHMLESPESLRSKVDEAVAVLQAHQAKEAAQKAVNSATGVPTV
Env fusion inh – inhibitors of HIV-1 Env-driven cell-cell fusion, primary screen, HeLa-JRFL effector, CEM21 target cells, luciferase; AID 651610, 2012; hit rate 1.1% among 360,000; inhibition, % at 12.3 µM;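 active = mean replicate inhibition score of at least 50 and every replicate individually at or above 50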;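 also: 0% = plate neutral controls and 100% = maraviroc near 300 nM; one replicate is shown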
Rce1 inh – yeast Rce1p protease inhibitors, primary screen, biochemical, fluorescence, cell-free homogeneous; yeast membranes, quenched prenylated peptide cleavage fluorescence; calls only; hit rate 0.27% among 290,000;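 active = fall in fluorescence gain of 50% or more versus controls, with final raw signal at or below 3038400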;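 also: plate controls were neutral control wells for no effect and wells lacking membranes for full effect; tested at 10 µM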
Target sequence (Q03530 whole entry, looked up): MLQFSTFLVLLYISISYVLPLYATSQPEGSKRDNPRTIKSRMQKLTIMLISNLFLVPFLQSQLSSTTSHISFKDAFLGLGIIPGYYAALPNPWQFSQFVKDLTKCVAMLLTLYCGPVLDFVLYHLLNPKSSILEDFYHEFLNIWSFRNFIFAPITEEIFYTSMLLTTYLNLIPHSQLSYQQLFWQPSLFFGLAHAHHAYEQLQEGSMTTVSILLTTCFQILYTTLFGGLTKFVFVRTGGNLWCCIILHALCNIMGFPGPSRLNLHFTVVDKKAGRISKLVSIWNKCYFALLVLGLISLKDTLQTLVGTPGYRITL
UUG fidelity – modulators of yeast start codon fidelity, primary screen, whole organism, S. cerevisiae, single point, plate reader; activity score, % at 18.7 µM; S. cerevisiae UUG-firefly luciferase reporter, luminescence/redox ratio; AID 602363, 2012; hit rate 0.13% among 350,000;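 active = replicate mean at a twofold rise or more, about +100% in these data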;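 also: firefly luciferase made from a UUG start codon reports start codon fidelity; reporter light over untreated wells divided by growth signal over untreated wells; some hits fall short of that in this replicate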
eIF4H inh – human eIF4H binding inhibitors, primary screen, translation initiation inhibitor project, biochemical, uHTS, fluorescence polarization; Eukaryotic translation initiation factor 4H (Homo sapiens), Q15056; eIF4H fluorescence polarization binding assay; inhibition, % at 35 µM; hit rate 0.94% among 290,000;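 active = 50% or more with normal probe brightness, or confirmed in later tests; about a fifth of its hits are not listed in these tables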;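 also: calls also rest on retests at 20 µM and on dose response follow-up; 0% = protein and probe with vehicle and 100% = probe without protein; strong numbers were not always called active; many hits fall short of the cut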
MT1-MMP act inh – blockers of MT1-MMP proenzyme processing, primary screen, HT1080 RFP-PRO-GFP cells, GFP/RFP fluorescence; GFP/RFP ratio fluorescence, overnight; percent of plate control window, DMSO zero; AID 651647, 2012; GFP/RFP ratio change, % at 20 µM; hit rate 0.061% among 360,000;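 active = GFP/RFP ratio change of at least 30% with cell ATP level not reduced by more than half and red fluorescence within 50% of control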; also: strong numbers were not always called active
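Assay system: HT1080 RFP-PRO-GFP cells. Benchmarks: DMSO vehicle wells and RFP-L50D-GFP reporter cell wells. Times: overnight cell settling, then overnight compound exposure, 37 °C, 5% CO2. Compound: 20 µM single dose, 1% DMSO. Read-out basis: GFP/RFP fluorescence ratio.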
MT1-MMP act inh RFP – further read-out of MT1-MMP act inh, marked with its call; RFP signal change, %; measured here: RFP expression control read;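 0 = vehicle wells; hits needed this value within 50% of zero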
* hit, by the source's call; i = inactive; nt = no result given; & = joins results of further samples; [ ] = dose if it differs, or a comment.

SMILES | CSC inhib | PABP polyA inh | Env fusion inh | Rce1 inh | UUG fidelity | eIF4H inh | MT1-MMP act inh | MT1-MMP act inh RFP
COc1cc(OC)cc(C(=O)OCc2cc3ccccc3[nH]c2=O)c1 | nt | 29 | -46 | i | -16 | -6 | -3 | -1
Cc1ccc(C2CC(c3ccco3)n3nc(N)nc3N2)cc1 (stereo unspecified) | -22 | 2 | 4 | i | -18 | -12 | 1 | 4
COC(=O)CCCCCN1C(=O)/C(=C\c2ccncc2)SC1=S | 1 | 3 | -28 | i | nt | -7 | 10 | 2
O=C(NCCc1ccccc1)c1ccc([N+](=O)[O-])cc1 | -18 | 15 | -124 | i | -49 | 11 | 0 | 0
O=C(/C=C/c1ccccc1Cl)N1CCN(c2ncccn2)CC1 | -15 | -9 | 28 | i | nt | -8 | -1 | 2
Cc1cc(C)n(-c2nc3ccccc3nc2N2CCOCC2)n1 | -5 | 5 | -15 | i | -20 | 2 | -1 | 5
CC(C)(CO)NCc1cccc(OCc2ccc(Cl)cc2)c1 | -24 | 10 | -43 | i | nt | -4 | 0 | -4
Cc1cc(C)cc(OC(=O)CN2C(=O)c3ccccc3C2=O)c1 | 1 | -6 | -1 | i | -24 | 0 | 4 | -1
Nc1ncn(C(=O)c2ccco2)n1 | -22 | -10 | nt | i | -10 | -2 | -4 | -2
O=S(=O)(Nc1nc(-c2ccco2)c(-c2ccco2)s1)c1ccc(F)cc1F | nt | nt | 7 | nt | -11 | nt | 2 | 4
CCOC(=O)c1c(-c2cccs2)csc1NC(=O)CCCC(=O)O | nt | 8 | nt | i | -3 | -3 | 7 | 2
CCC(=O)OCC(=O)Nc1ncc(C(F)(F)F)cc1Cl | -6 | 15 | -2 | i | -2 | 4 | -2 | 7
CC(N=c1ccccn1C(=O)Nc1cccc(C(F)(F)F)c1)c1ccco1 (stereo unspecified) | 6 | 3 | 19 | i | -17 | -7 | -2 | -2
CN(C(=O)Cn1cc(C(F)(F)F)cc(Cl)c1=O)C1CCS(=O)(=O)C1 (stereo unspecified) | -10 | nt | -19 | i | -14 | nt | 0 | 5
COCCSc1ccccc1C(=O)Nc1nncs1 | 7 | -2 | 25 | i | -17 | 4 | -1 | 0
CC(C)(C)c1ccc(OCC(O)CSc2ncn[nH]2)cc1 (stereo unspecified) | -5 | 3 | nt | i | -31 | -46 | 2 | -1
COc1ccc(C(C(=O)NCCC(C)C)N(CCN2CCOCC2)C(=O)Cn2nnc3ccccc32)c(OC)c1 (stereo unspecified) | -18 | 4 | 8 | i | nt | 12 | -1 | -6
CS(=O)(=O)c1ccc(Cl)c(NC(=O)CCc2ccccc2)c1 | -18 | -10 | -5 | i | nt | -1 | -1 | 1
COc1ccc(NC(=O)c2sc3ncn(CC(=O)N4CCCCC4)c(=O)c3c2C)cc1OC | -5 | -3 | -6 | i | 3 | -8 | 2 | 1
Cc1ccc(NC(=O)c2cnccn2)nc1 | -18 | 7 | -62 | i | -11 | -3 | 2 | 4
O=C(c1ccc(Cl)cc1)c1cnc(Nc2ccccc2Cl)s1 | 15 | -3 | -120 | i | -19 | -12 | -1 | -5
CCOC(=O)c1csc(NC(=O)COc2ccc(Cl)cc2Cl)n1 | 9 | 4 | -15 | i | 0 | -4 | 0 | 1
O=C(NCc1ccccc1)c1ccc(S(=O)(=O)N2CCCc3ccccc32)cc1 | 14 | -10 | 2 | i | -7 | -16 | 3 | -9
O=C(Nc1nc2c(s1)CCCC2)c1cccnc1 | -2 | -7 | nt | i | nt | 7 | 4 | -1
CN(C)c1ccc(CN(Cc2ccco2)C(=O)c2ccco2)cc1 | -1 | 7 | -24 | i | -7 | 9 | -1 | 1
CCN(Cc1ccccc1)C(=O)c1cccc(S(=O)(=O)N2CCN(c3ccc(F)cc3)CC2)c1 | 2 | nt | -18 | i | nt | nt | -5 | -8
COc1cc(/C(C)=N/NC(=S)NC(C)C)cc(OC)c1OC | -1 | 4 | -1 | i | nt | -10 | 6 | -3
CC1CN(Cc2cc(=O)n3ccsc3n2)CC(C)O1 (stereo unspecified) | -11 | -2 | nt | i | 6 | -6 | 2 | 19
O=C(Cc1ccc(Br)cc1)NCCc1ccc(F)cc1 | 5 | 11 | 7 | i | -16 | 1 | 3 | -2
Cc1c(N2C(=O)/C(=C\c3ccccc3O)SC2=S)c(=O)n(-c2ccccc2)n1C | 14 | -2 | -19 | i | -35 | -6 | -2 | 1
COCCn1c(C)cc(C(=O)COC(=O)C2CC(=O)N(CCc3ccc(OC)c(OC)c3)C2)c1C (stereo unspecified) | -7 | nt | -11 | i | nt | nt | -5 | -2
COc1cccc(N2CCN(C(=O)/C=C/c3ccco3)CC2)c1 | 5 | -7 | 0 | i | nt | 5 | 1 | 1
O=S(=O)(c1ccccc1)N1CCN(S(=O)(=O)c2ccccc2)C1 | 5 | 7 | nt | i | nt | 19 | 3 | 4
COc1cc(-c2nnc3sc(Cc4ccc(Cl)cc4)nn23)cc(OC)c1OC | 45 | nt | 23 | i | -17 | nt | 7 | -6
CCC(=O)NCc1ccc2[nH]c(C)cc2c1 | -11 | -6 | 17 | i | nt | 3 | 8 | 11
COc1cc(C(=O)N2CCN(Cc3ccccn3)CC2)cc(OC)c1OC | -1 | -5 | 1 | i | -15 | -6 | 11 | 5
NCCOc1ccc(C23CC4CC(CC(C4)C2)C3)cc1 | -10 | 4 | -7 | i | -17 | -11 | 5 | 0
CCn1c(SCC(=O)Nc2ccc(N3CCOCC3)cc2)nnc1-c1ccc(OC)cc1 | 6 | -3 | nt | i | nt | -5 | -1 | -5
COc1ccc(S(=O)(=O)Nc2cccc3c2O[C@H](CN(C)S(=O)(=O)c2cccs2)[C@@H](C)CN([C@H](C)CO)C3=O)cc1 | 9 | nt | 6[16.7 µM] | nt | 1&-3 | nt | 3 | 1
CCOC(=O)C1(CCOc2ccccc2)CCN(Cc2ccc(-n3cccn3)cc2)CC1 | 51 | -6 | 36 | i | -11 | -8 | 7 | -12
O=C(NCc1ccc(F)cc1)C1CCCN1C(=O)Nc1cccc(F)c1 (stereo unspecified) | -10 | -8 | 2 | i | -2 | 2 | 2 | 1
Cc1ccccc1C(=O)c1cccn1CC(=O)NCCC1=CCCCC1 | 1 | -15 | 29 | i | nt | -4 | -1 | 3
CCOc1ccccc1NC(=O)CSc1nc(=O)n(CCCN2CCOCC2)c2c1CCCC2 | -22 | nt | 47 | i | -2 | nt | -1 | 6
CCOc1ccccc1-n1nnnc1SCC(=O)O | -8 | 1 | -5 | i | -10 | 3 | -2 | 0
O=C(CSc1ncccn1)n1c2c(c3ccccc31)CCCC2 | -3 | 10 | nt | i | -11 | 2 | -1 | 4

For convenience, two of the compounds above.
SMILES | CSC inhib | PABP polyA inh | Env fusion inh | Rce1 inh | UUG fidelity | eIF4H inh | MT1-MMP act inh | MT1-MMP act inh RFP
COc1cc(C(=O)N2CCN(Cc3ccccn3)CC2)cc(OC)c1OC | -1 | -5 | 1 | i | -15 | -6 | 11 | 5
NCCOc1ccc(C23CC4CC(CC(C4)C2)C3)cc1 | -10 | 4 | -7 | i | -17 | -11 | 5 | 0

More records follow.
SMILES | CSC inhib | PABP polyA inh | Env fusion inh | Rce1 inh | UUG fidelity | eIF4H inh | MT1-MMP act inh | MT1-MMP act inh RFP
Cc1ccc2nc(-c3ccc(NC(=O)CN4CCN(C(=O)c5ccco5)CC4)cc3)sc2c1 | nt | 0 | nt | i | -2 | -1 | 0 | -7
O=C(CSc1ccccc1)Nc1nnc(-c2ccco2)o1 | -9 | nt | -15 | i | nt | nt | 4 | 8
O=C(O)C1CCN(c2ncccn2)CC1 | 1 | -9 | nt | i | -15 | -11 | 2 | 1
CC1(Cc2ccc(Cl)cc2)C(=O)Nc2ccc(S(=O)(=O)NC3CCCCC3)cc21 (stereo unspecified) | nt | nt | 91* | nt | -1 | nt | -6 | 0
CCOC(=O)C1(Cc2ccccc2C(F)(F)F)CCN(C(C)CSC)CC1 (stereo unspecified) | 51 | -1 | -2 | i | -15 | 1 | -2 | 0
CC(=O)CSc1ccc(-c2nc3ccccc3[nH]2)cn1 | 43 | 0 | -35 | i | -25 | -6 | 7 | -6
COc1ccc(CCNC(=O)C2CCCN(c3ncnc4c3nc3n4CCCCC3)C2)c(OC)c1 (stereo unspecified) | nt | 7 | -1 | i | 0 | -8 | -5 | -3
CCOc1ccccc1CN1CCN(C2CCSCC2)CC1CCO (stereo unspecified) | 1 | 1 | -13 | i | -8 | -3 | -4 | -5
CCOC(=O)C(CCCCCOc1ccccc1[N+](=O)[O-])C(=O)OCC | 1 | 2 | 7 | i | nt | -7 | 3 | -4
C/C(=N/NC(=O)c1cc(C)[nH]n1)c1ccncc1 | -8 | 2 | 4 | i | -15 | -18 | 2 | 6
Cc1ccc(-c2nn(Cc3ccccc3)cc2/C=C/C(=O)O)cc1 | nt | 1 | nt | i | nt | 4 | 3 | 2
O=C(c1cc(-c2ccccc2)n[nH]1)N1CCc2c([nH]c3ccccc23)C1c1ccccn1 (stereo unspecified) | -3 | -16 | 4 | i | -13 | -6 | 0 | -5
COCCCNC(=S)Nc1ccc(C)cc1[N+](=O)[O-] | -4 | -18 | -10 | i | nt | -7 | -2 | 2
CC1CCCC(C)N1C(=O)c1ccc(S(=O)(=O)NCc2ccco2)cc1 (stereo unspecified) | 3 | 9 | -6 | i | -4 | -6 | -1 | -11
O=C(C=Cc1ccccn1)c1ccccc1O | nt | nt | -2 | nt | -22 | nt | 3 | 0
O=C(NC(=O)c1ccccc1F)OCc1ccc(Cl)cc1Cl | 3 | 1 | -24 | i | nt | -8 | 1 | 1
Cc1ncc(C(=O)Nc2ccccc2)[nH]1 | nt | nt | -49 | nt | -26 | nt | 2 | 4
Cc1ccccc1-c1nnnn1C1CCS(=O)(=O)C1 (stereo unspecified) | -9 | -4 | 13 | i | nt | -11 | 0 | 1
O=[N+]([O-])c1ccc2sc(SCc3nc4ccccn4c3Br)nc2c1 | -3 | -3 | nt | i | nt | -4 | nt | nt
CC1(C(=O)NS(=O)(=O)c2ccc(F)cc2F)CCN1C(=O)c1ccccc1 (stereo unspecified) | nt | nt | -11 | nt | -17 | nt | -2 | 2
COc1ccc(OCC(=O)Nc2ccc(S(=O)(=O)N(C)c3ccccc3)cc2)cc1 | nt | -2 | nt | i | -13 | -10 | 1 | 3
CN(Cc1cnn(-c2ccc(F)cc2)c1)C(=O)[C@H]1O[C@@H](n2cnc3c(N)ncnc32)[C@H](O)[C@@H]1O | nt | nt | 11 | nt | -12 | nt | 1 | 1
CCc1ccc(NC(=O)C(=O)NNC(=O)c2cccc(OC)c2)cc1 | 3 | -3 | -4 | i | -15 | 11 | -5 | 0
Cc1cc(C)nc(N=Nc2c(O)n(Cc3ccc(Cl)cc3)c3ccccc23)n1 | 13 | 5 | 21 | i | nt | 14 | -1 | -9
COc1ccc(CN2CCC(N3CC(C)OC(C)C3)CC2)c(OC)c1OC (stereo unspecified) | 1 | 11 | -6 | nt | -15 | 16 | -2 | 2
C/C(=N/Nc1nc(-c2ccccc2F)nc2ccccc12)c1ccccc1O | 20 | -9 | -16 | i | -11 | 16 | -31 | 2

An excerpt from above in order of SMILES length, highest first.
SMILES | CSC inhib | PABP polyA inh | Env fusion inh | Rce1 inh | UUG fidelity | eIF4H inh | MT1-MMP act inh | MT1-MMP act inh RFP
COc1ccc(C(C(=O)NCCC(C)C)N(CCN2CCOCC2)C(=O)Cn2nnc3ccccc32)c(OC)c1 (stereo unspecified) | -18 | 4 | 8 | i | nt | 12 | -1 | -6
CC1(C(=O)NS(=O)(=O)c2ccc(F)cc2F)CCN1C(=O)c1ccccc1 (stereo unspecified) | nt | nt | -11 | nt | -17 | nt | -2 | 2
COC(=O)CCCCCN1C(=O)/C(=C\c2ccncc2)SC1=S | 1 | 3 | -28 | i | nt | -7 | 10 | 2

Screening data from PubChem BioAssay.
